High-throughput results from PubChem.
Rango release inh: inhibition of RanGTP-driven Rango-importin beta dissociation. Potency, µM (highest dose often 46.1 µM), inactives show at the top dose activity change, negative = inhibition. Biochemical FRET Rango-importin beta, RanGTP-induced dissociation. 340,000 tested, 0.071% active. O95149+P62826; active means falling FRET ratio curve, often poorly fitted, with flat reads before Ran was added; inconclusive means other falling curves, or compound fluorescence or quenching; inactive means flat or rising ratio curve;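 further: potency means the concentration at half of the fitted maximal effect; % of control where 0% means no effect; nearly all actives have a fitted effect of over 45% in size; -100% = wells without RanGTP and RCC1; the record marks most hits as doubtful in a second field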
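Rango/importin beta premix (0.1/0.25 uM final), PBS + 1 mM DTT + 0.02% Tween-20 + 0.1% BSA; cpd 5 min RT; FRET pre-read; + RanGTP-RCC1 (0.6 uM Ran, 2 mM GTP, 0.2 uM RCC1); 45 min RT; FRET post-read, ex 430, em 486/530 nm.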
miR-21 reporter: miR-21 reporter, rising signal; HeLa miR-21 FLuc reporter, luciferase, 48 h; Potency, µM (titrated, usually from 38.3 µM), for the others: at the highest dose reporter change, positive = more light; 340,000 tested, under 10 active; active = well fitted rising curve with a large enough effect; inconclusive = small, poorly fitted or top-dose-only effect; inactive = no such curve, though single readings can be large or run the other way;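 further: % of control where 0% means no effect; miR-21 action dims this reporter so a rising signal means less miR-21 action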
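Luminescence from a firefly luciferase reporter carrying a miR-21 binding site downstream, stably expressed under a CMV promoter in HeLa cells that make miR-21 endogenously, reports miRNA modulation after 48 h compound exposure up to approximately 40uM final.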
GLA inh pH 4.5: blocks human alpha-galactosidase A at pH 4.5. P06280. purified enzyme, 4-MU-alpha-Gal fluorescence, pH 4.5. activity change, negative = inhibition, % at 105 µM. 230,000 tested, under 10 active. AID 1467; inconclusive = small, poorly fitted or top-dose-only inhibition, or a rising curve; inactive = flat fitted curve, though single readings scatter; no compound was filed as active;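 further: 0% = full activity with enzyme and -100% = basal without enzyme; dose as in the result columns while the protocol names 77 µM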
Target sequence (P06280 whole entry, looked up): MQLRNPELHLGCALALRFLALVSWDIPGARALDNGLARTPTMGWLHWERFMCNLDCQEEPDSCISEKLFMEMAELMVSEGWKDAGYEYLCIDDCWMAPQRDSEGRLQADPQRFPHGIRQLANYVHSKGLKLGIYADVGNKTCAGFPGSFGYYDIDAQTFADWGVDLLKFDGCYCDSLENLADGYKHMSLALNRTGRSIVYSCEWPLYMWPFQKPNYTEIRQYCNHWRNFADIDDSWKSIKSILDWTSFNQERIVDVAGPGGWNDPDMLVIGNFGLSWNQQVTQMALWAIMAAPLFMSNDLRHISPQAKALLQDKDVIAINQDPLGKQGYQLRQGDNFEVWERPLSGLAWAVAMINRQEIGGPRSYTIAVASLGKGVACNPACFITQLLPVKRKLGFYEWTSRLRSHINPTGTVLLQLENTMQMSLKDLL
Rango complex inh: prevents formation of the Rango-importin beta complex; Q14974; Rango CFP/YFP FRET sensor + importin beta, 45 min; Potency, µM (doses to about 92.2 µM), inactives show top-dose inhibition of complex formation; 340,000 tested, 0.031% active; AID 540263; active = rising FRET ratio curve, often small or poorly fitted; inconclusive = mostly compound fluorescence or quenching in the first reads; inactive = flat curves in all reads;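 further: potency means the concentration at half of the fitted maximal effect; 0% = DMSO wells and 100% = buffer wells lacking importin beta; nearly all actives have a fitted effect of over 15% in size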
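Inhibition scored from the CFP 486 nm/YFP 530 nm FRET ratio 45 min after adding 0.125 microM importin beta to 50 nM Rango biosensor preincubated 5 min with compound (room temperature, PBS with DTT, Tween-20, BSA). No-importin wells as positive control.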
Numbers without * were called inactive; & = joins results of further samples; [ ] = remark or other dose. An excerpt, so the mix of outcomes need not match the whole.

`COc1ccccc1CNCC(=O)Nc1ccc(N2CCOCC2)cc1` gave Rango release inh 4%, miR-21 reporter 6%, GLA inh pH 4.5 -2 and Rango complex inh -0.5%.
Screening COC(=O)c1ccccc1N(C)S(=O)(=O)c1cc2c(cc1C)OCC(=O)N2 returned Rango release inh -2%, miR-21 reporter 14%, GLA inh pH 4.5 5[21.1 µM] and Rango complex inh -2.4%.
`O=C1CSC(=Nc2ccccc2)N1Cc1ccccc1` gave Rango release inh 12%, miR-21 reporter -2%, GLA inh pH 4.5 -4 and Rango complex inh 0.0%.
`Cc1cccc(C(=O)c2cn[nH]c2-c2ccc(C)cc2O)c1` gave Rango release inh 0%, miR-21 reporter 0% and Rango complex inh -1.1%.
`COc1ccc(N2C(=O)CSC2c2ccccc2[N+](=O)[O-])cc1` (stereo unspecified) gave Rango release inh -10%, miR-21 reporter -12%, GLA inh pH 4.5 7 and Rango complex inh 6.1%.
`CCCCN(CC)CCNC(=O)c1[nH]c(C)c(C(C)=O)c1C` gave Rango release inh 1%, miR-21 reporter 5%, GLA inh pH 4.5 -11 and Rango complex inh 1.1%.
For Cc1nn(C)c(C(=O)N/N=C/c2ccc(C(F)(F)F)cc2)c1[N+](=O)[O-] the results were Rango release inh 17%, miR-21 reporter 0%, GLA inh pH 4.5 -14 and Rango complex inh 1.4%.
Screening Cc1ccc(-n2ccnc(SCC(=O)NCCc3ccccc3)c2=O)cc1F returned Rango release inh -4% and Rango complex inh -0.6%.
`CCOc1ccc2c(c1)C(C)=CC(C)(C)N2C(=O)Nc1ccccc1` gave Rango release inh -19%, miR-21 reporter -14%, GLA inh pH 4.5 10 and Rango complex inh inconclusive.
CCOc1ccc(-n2cc(C(=O)Nc3ccc(Cl)cn3)c3cc(OC)c(OC)cc3c2=O)cc1 was read as Rango release inh inconclusive, miR-21 reporter -2%, GLA inh pH 4.5 -10 and Rango complex inh inconclusive.
Screening Cn1nc(C(=O)Nc2nc(-c3ccccn3)cs2)c2ccccc2c1=O returned Rango release inh -1% and Rango complex inh -0.7%.
`Cc1nn(-c2ccccc2)c(C)c1/C=N/NC(=O)c1ccccc1O` gave Rango release inh 2%, miR-21 reporter -30% and Rango complex inh 2.2%.
Screening CS(=O)(=NS(=O)(=O)c1ccc(Cl)cc1)c1ccccc1 (stereo unspecified) returned Rango release inh 26%, miR-21 reporter -5%, GLA inh pH 4.5 -4 and Rango complex inh -0.5%.
For O=C(c1cc(-c2cccnc2)nc2ccc(Br)cc12)N1CCN(c2ncccn2)CC1 the results were Rango release inh -2%, miR-21 reporter -2%, GLA inh pH 4.5 -7 and Rango complex inh 5.2%.
`CN(C)/C=N/c1ncc(C(=O)c2ccc(Cl)cc2Cl)s1` gave Rango release inh -7%, miR-21 reporter -10%, GLA inh pH 4.5 -17 and Rango complex inh -3.4%.
CCCCOC(=O)Nc1ccccc1C(N)=O was read as Rango release inh 8%, miR-21 reporter -28%, GLA inh pH 4.5 -8 and Rango complex inh 0.4%.
Screening O=C(Oc1ccc2c(=O)c(Cl)coc2c1)c1ccncc1 returned Rango release inh -2%, miR-21 reporter 0%, GLA inh pH 4.5 0 and Rango complex inh inconclusive.
For Nc1nnc(SCc2ccccc2F)n1-c1ccccc1 the results were Rango release inh -1%, miR-21 reporter -11%, GLA inh pH 4.5 -4 and Rango complex inh -1.1%.
`CC(CC(=O)c1cccs1)CC(=O)c1cccs1` gave Rango release inh 0%, miR-21 reporter -66%, GLA inh pH 4.5 -5 and Rango complex inh -0.2%.
`Cc1nc(NCCc2ccc(O)cc2)c2nnn(Cc3ccccc3)c2n1` gave Rango release inh 13%, miR-21 reporter 8% and Rango complex inh inconclusive.
Screening O=C1COc2cc(S(=O)(=O)CCC(=O)N3CCCCC3)c(Cl)cc2N1 returned Rango release inh 3%, miR-21 reporter -1% and Rango complex inh -0.7%.
O=C(CC1C[C@H](C(=O)N2CCOCC2)[C@@]2(CCC3CCCC3)c3[nH]c4ccccc4c3CCN2C1=O)NCCc1ccccn1 (stereo partly specified) was read as Rango release inh -12% and Rango complex inh inconclusive.
Screening Cc1nn2c(NCCOCCO)c3c(nc2c1-c1ccccc1)CCCC3 returned Rango release inh 0%, miR-21 reporter -3%, GLA inh pH 4.5 3 and Rango complex inh 0.3%.
For O=C(Nc1ccccc1F)c1cc2nc(C(F)F)cc(C(F)F)n2n1 the results were Rango release inh -2%, miR-21 reporter -61%, GLA inh pH 4.5 8 and Rango complex inh -1.3%.
For CCCn1c(N2CCN(C)CC2)nc2c1c(=O)[nH]c(=O)n2C the results were Rango release inh -9%, miR-21 reporter -8%, GLA inh pH 4.5 -4 and Rango complex inh -0.7%.
For O=C(NCC1CC1)[C@]1(C(F)(F)F)C[C@H](CCC2CCCCC2)CCCO1 the results were Rango release inh -14% and Rango complex inh -0.5%.
COc1ccc(N2CCN(C(=O)CCSCc3ccccc3F)CC2)cc1 was read as Rango release inh 12%, miR-21 reporter -6%, GLA inh pH 4.5 4 and Rango complex inh -0.6%.
Screening CN(C)C(CNC(=O)CSc1nc2sc3c(c2c(=O)n1C)CCCC3)c1ccccc1 (stereo unspecified) returned Rango release inh 3% and Rango complex inh -3.3%.
Screening CCc1nn(CC(=O)N2CCC(C)CC2)c(=O)c2cccn12 returned Rango release inh 15%, miR-21 reporter 0% and Rango complex inh 2.7%.
COC(=O)c1[nH]c2ccccc2c1NC(=O)CN1CCCc2ccccc21 was read as Rango release inh 9%, miR-21 reporter 0%, GLA inh pH 4.5 -16 and Rango complex inh 5.2%.
For Cc1cc(F)ccc1NC(=O)C1CSC2(C)CCC(=O)N12 (stereo unspecified) the results were Rango release inh 0% and Rango complex inh 1.1%.
Screening Oc1[nH]c2ccccc2c1N=NC(=S)NCCc1ccccc1 returned Rango release inh 1%, miR-21 reporter -21%, GLA inh pH 4.5 -16 and Rango complex inh -5.2%.
Screening Cc1nc(N)c(Br)c(C)c1Br returned Rango release inh 10%, miR-21 reporter 2%, GLA inh pH 4.5 3 and Rango complex inh 6.1%.
Cc1cc(NS(=O)(=O)c2ccc(NC(=O)/C=C/c3ccccc3)cc2)no1 was read as Rango release inh 0%, miR-21 reporter -10% and Rango complex inh -0.3%.
Screening Cc1ccc(Cl)cc1N1CCN(C(=O)c2noc(C(C)C)c2[N+](=O)[O-])CC1 returned Rango release inh -9%, miR-21 reporter 8% and Rango complex inh -0.3%.
Screening O=S(=O)(c1ccc(Cl)cc1)N1CCN=C1SCc1ccc(Cl)c(Cl)c1 returned Rango release inh -14%, miR-21 reporter -4%, GLA inh pH 4.5 -5 and Rango complex inh -0.4%.
CCN(CC(=O)Nc1ccc(NC(C)=O)cc1)C(=O)c1cc2c(s1)CCCC2 was read as Rango release inh 2% and Rango complex inh -2.6%.
`COc1cccc2c1O/C(=N\O)C(C(=O)Nc1cccc(Br)c1)C2` (stereo unspecified) gave Rango release inh -1%, miR-21 reporter -13% and Rango complex inh -0.3%.
CCC1CCCCN1Cc1ccc(CNS(=O)(=O)c2ccc3c(c2)oc(=O)n3C)o1 (stereo unspecified) was read as Rango release inh 0%, miR-21 reporter -4%, GLA inh pH 4.5 0 and Rango complex inh 3.0%.
`COc1ccc(CCN(C)Cc2nc(-c3cnccn3)no2)cc1OC` gave Rango release inh -5%, miR-21 reporter -7%, GLA inh pH 4.5 -1 and Rango complex inh -1.5%.

Molecules above that have a CF3 group (two):
For Cc1nn(C)c(C(=O)N/N=C/c2ccc(C(F)(F)F)cc2)c1[N+](=O)[O-] the results were Rango release inh 17%, miR-21 reporter 0%, GLA inh pH 4.5 -14 and Rango complex inh 1.4%.
For O=C(NCC1CC1)[C@]1(C(F)(F)F)C[C@H](CCC2CCCCC2)CCCO1 the results were Rango release inh -14% and Rango complex inh -0.5%.

(more compounds)
Screening CCOC(=O)c1cc2c(=O)n3cccc(C)c3nc2n(Cc2ccco2)c1=NC(=O)c1ccc(C)cc1 returned Rango release inh -5% and Rango complex inh -1.2%.
For CCOC(=O)C1CCN(S(=O)(=O)c2ccc3c(c2)N(C)C(=O)CC(=O)N3C)CC1 the results were Rango release inh 2%, miR-21 reporter 1%&-4% and Rango complex inh 1.0%.
`CCC(CC)C(=O)Nc1nnc(S(=O)(=O)Nc2ccc(OC)cc2)s1` gave Rango release inh -7%, miR-21 reporter -11% and Rango complex inh 0.6%.
For Cc1cc(=O)oc2c(C)c(OCC(=O)NCCCN3CCCC3=O)ccc12 the results were Rango release inh 1%, miR-21 reporter 0% and Rango complex inh 0.7%.
Cc1ccc(NC(=O)CCCN2C(=O)/C(=C/C=C/c3ccccc3)SC2=S)cc1 was read as Rango release inh 2%, miR-21 reporter -1%, GLA inh pH 4.5 -7 and Rango complex inh inconclusive.
COc1ccc(CC(=O)Nc2ccc(OC(C)=O)cc2C(=O)O)cc1 was read as Rango release inh 1%, miR-21 reporter 0%, GLA inh pH 4.5 3 and Rango complex inh 0.2%.
`Cc1nc2sc(C(c3ccccc3)N3CCN(c4ccccc4F)CC3)c(O)n2n1` (stereo unspecified) gave Rango release inh -6%, miR-21 reporter -9%, GLA inh pH 4.5 -13 and Rango complex inh 0.2%.
CSc1ccccc1NC(=O)CO/N=C(\C)c1cc2ccccc2o1 was read as Rango release inh -10%, miR-21 reporter -6%, GLA inh pH 4.5 7 and Rango complex inh 0.5%.
`N/C(=N/O)c1cccn1Cc1ccccc1[N+](=O)[O-]` gave Rango release inh 2%, miR-21 reporter -1%, GLA inh pH 4.5 -5 and Rango complex inh -1.7%.
Screening Cc1ccc(NC(=O)COC(=O)COc2cccc3c2OC(C)(C)C3)cc1C returned Rango release inh 4%, miR-21 reporter -3% and Rango complex inh 0.7%.
Screening Cc1c(NC(=O)c2ccc(Cl)c([N+](=O)[O-])c2)cccc1-n1cnnn1 returned Rango release inh 8% and Rango complex inh -3.9%.
For CCCc1cc(C(=O)OCC(=O)N(CCC)c2c(N)n(Cc3ccccc3)c(=O)[nH]c2=O)sc1C the results were Rango release inh -1% and Rango complex inh -1.2%.
`COc1ccccc1C(=O)NC(=O)COC(=O)CNC(=O)c1ccccc1` gave Rango release inh 2% and Rango complex inh -2.2%.
For Cc1ccc(NC(=O)CCn2cnc3ccccc3c2=O)cc1Cl the results were Rango release inh 7%, miR-21 reporter -4%, GLA inh pH 4.5 0 and Rango complex inh 2.7%.
Screening Cc1ccccc1SC1CCN(C(=O)C2CCC(=O)N(C3CC3)C2)CC1 (stereo unspecified) returned Rango release inh -14%, miR-21 reporter 5% and Rango complex inh -3.2%.
`CC1CCN(CCCNC(=O)C2CCC(CNS(=O)(=O)c3ccccc3)CC2)CC1` (stereo unspecified) gave Rango release inh 0%, miR-21 reporter -6% and Rango complex inh 0.4%.
For CCOc1ccccc1N1CCN(CC(O)COc2ccc3c(C)cc(=O)oc3c2)CC1 (stereo unspecified) the results were Rango release inh -4%, miR-21 reporter -4%, GLA inh pH 4.5 5 and Rango complex inh -1.2%.
For COc1ccc(OC)c2[nH]c(=O)c(CCNS(=O)(=O)c3ccc(F)cc3)cc12 the results were Rango release inh -4%, miR-21 reporter -11% and Rango complex inh -0.1%.

For convenience, five of the compounds above:
For Cc1ccc(NC(=O)CCn2cnc3ccccc3c2=O)cc1Cl the results were Rango release inh 7%, miR-21 reporter -4%, GLA inh pH 4.5 0 and Rango complex inh 2.7%.
Screening Cc1ccccc1SC1CCN(C(=O)C2CCC(=O)N(C3CC3)C2)CC1 (stereo unspecified) returned Rango release inh -14%, miR-21 reporter 5% and Rango complex inh -3.2%.
`CC1CCN(CCCNC(=O)C2CCC(CNS(=O)(=O)c3ccccc3)CC2)CC1` (stereo unspecified) gave Rango release inh 0%, miR-21 reporter -6% and Rango complex inh 0.4%.
For CCOc1ccccc1N1CCN(CC(O)COc2ccc3c(C)cc(=O)oc3c2)CC1 (stereo unspecified) the results were Rango release inh -4%, miR-21 reporter -4%, GLA inh pH 4.5 5 and Rango complex inh -1.2%.
For COc1ccc(OC)c2[nH]c(=O)c(CCNS(=O)(=O)c3ccc(F)cc3)cc12 the results were Rango release inh -4%, miR-21 reporter -11% and Rango complex inh -0.1%.
